# S aureus helic: inhibitors of S. aureus replicative helicase, primary screen, biochemical, fluorescence unwinding readout; 0.05% of 120,000 active; replicative DNA helicase (DnaC/DnaB), Staphylococcus aureus; purified S. aureus helicase, fluorescence unwinding assay; about half of the hits fall short of the stated cut; inhibition, %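 (tested at about 80 µM)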;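 active = both duplicates at 50% or more, or one of them with a favoured structure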;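 note: 0% = mean of negative control wells and 100% = mean of positive control wells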
# MgrA DNA FP: S. aureus MgrA activity modulators, primary screen, biochemical, S. aureus Newman, fluorescence polarization; inhibition, %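 (about 10 µg/mL by stock and volumes)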; MgrA-DNA binding; 0.13% of 84,000 active;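 active = above 50% in either of two replicates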;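 note: 0% = protein plus DNA without compound and 100% = DNA alone without protein; higher means less MgrA bound to DNA so lower polarization; one replicate is shown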
# * hit, by the source's call; · = no result given; & = joins results of further samples. Some of the compounds tested; the hit share may differ from the screen's.
# Fields: S aureus helic, MgrA DNA FP
Cc1ccc2c(cnn2C(=O)CCCC(=O)N2CCN(c3ccccc3)CC2)c1
    8, ·
O=S(=O)(NCCc1ccccn1)c1cccc2nsnc12
    ·, 0.0
O=C(O)C1CCN(C(=O)c2sc3ccccc3c2Cl)CC1
    ·, -1.9
c1ccc(CSc2ncnc3nc[nH]c23)cc1
    -8, ·
Cc1nn(-c2ccccc2)cc1/C=N/NS(=O)(=O)c1ccccc1
    9, ·
COc1cc(NC(=O)c2ccco2)c(OC)cc1NC(=O)CSc1ncc(-c2ccc(F)cc2)[nH]1
    -3, 4.2
CCOC(=O)c1sc(SC)c(C(C)=O)c1C
    ·, -1.1
O=C(C1=CC=CN2CCS(=O)(=O)N=C12)N1CCN(c2ccccn2)CC1
    -12, ·
Cc1cc(C)c(C(=O)N2CCOCC2)c(CC(C)(C)C(=O)O)c1
    ·, -1.6
Cc1ccc(C(=O)Nc2c(C(C)(C)C)nn(C)c2C(C)(C)C)cc1
    -18, ·
COCc1cc(C)nc2sc(C(=O)N(C)c3ccccc3)c(N)c12
    -6, -0.8
COc1ccc(C2CC(=O)Nc3cc(OC)c(OC)cc32)cc1 (stereo not drawn)
    37, ·
CCn1c(=NC(=O)c2ccc(Cl)s2)sc2ccccc21
    4, ·
CCN(C(=O)c1ccc2c(SCC(=O)O)c3c(nc2c1)CCC3)c1cc(Cl)ccc1OC
    13, -0.7
O=C(CNC(=O)c1ccco1)Nc1ccc(Cl)cc1
    7, ·
O=C1c2ccccc2C(=O)c2[nH]c(-c3c(F)c(F)c(F)c(F)c3F)nc21
    2, ·
COc1ccc(NC(=O)c2cccnc2Cl)cc1
    ·, -1.1
Cc1ccc(C(=O)N/C(=C/c2ccccc2)C(=O)NCc2ccco2)cc1
    -2, 1.5
O=C1c2ccccc2NC(c2ccccc2)N1N=C1CCCCCC1 (stereo not drawn)
    16, 0.3
CCC(Oc1ccccc1)C(=O)N1CCCCC1C (stereo not drawn)
    -1, -7.3

# Fields: S aureus helic, MgrA DNA FP
Cc1ccc(NC2OC(CO)C(O)C2O)cc1C (stereo not drawn)
    16, 1.8
CS(=O)(=O)N(CC(=O)O)C1CCCCC1
    8, -0.7
CCCCn1c(SCC(=O)N2CCCCCC2)nnc1-c1ccoc1C
    8, 1.1
CSc1nc(C)c(C)c(=O)[nH]1
    -11, ·
Cc1oc(C(C)(C)C)cc1C(=O)NC(Cc1ccccc1)C(=O)O (stereo not drawn)
    -3, -3.6
COC(=O)N1CCN(c2nc(-c3ccccc3)cs2)CC1
    11, -1.2
O=S(=O)(c1ccc2nc(CO)[nH]c2c1)c1ccc2nc(CO)[nH]c2c1
    0, -2.4
CSc1nnc(-c2ccccc2N)c(=O)[nH]1
    14&11&-4, 0.6&-0.5
CCCNC(=O)c1[nH]c2ccccc2c1Sc1ccc(C)cc1
    -13, 0.6
Cc1ccc2c(=O)c(C(=O)NC3CCCC3)c[nH]c2c1
    6, 9.6
C#CC1(NC(N)=O)CCCCC1
    ·, -3.3
COC(=O)c1ccc(C)c(NC(=O)c2ccc(C3SCC(=O)N3Cc3ccccc3)cc2)c1 (stereo not drawn)
    16, ·
Nc1n[nH]c(=S)n1Cc1ccccc1
    -12, ·
CC(C)(C)NC(=S)NCc1ccccc1
    14, -8.3
CC1CCCC(C)N1NC(=S)NC1CCCCC1 (stereo not drawn)
    1, 5.9
CC(C)N1CC23C=CC(O2)C(C(=O)O)C3C1=O (stereo not drawn)
    -9, -4.5
Cc1ccc(-c2ccc(C)cc2[N+](=O)[O-])c([N+](=O)[O-])c1
    ·, 2.8
N#Cc1cc2c(nc1SCC(=O)Nc1ccc(S(=O)(=O)Nc3nccs3)cc1)CCCC2
    6, ·
CCOC(=O)Cc1nn2c(=O)cc(C)nc2s1
    6, ·
C[N+]1(C)CCCC(OC(=O)C(O)(c2ccccc2)c2ccccc2)C1 (stereo not drawn)
    ·, 3.8&0.1

# Fields: S aureus helic, MgrA DNA FP
Cc1cc2c(cc1S(=O)(=O)N1CCN(C3CCCCC3)CC1)n(C)c(=O)c(=O)n2C
    18, ·
CSc1ncnc2sc(C)cc12
    5, -1.7
CC1(C)CC(C)(c2ccccc2)c2cc(SC#N)ccc2N1 (stereo not drawn)
    3, -1.1
CCOC(=O)c1ncoc1-c1ccco1
    ·, -0.4
CC1CCN(C(c2ccccc2)c2ccc3cccnc3c2O)CC1 (stereo not drawn)
    -14, ·
CCn1cc(CCC(=O)NCc2ccco2)c2ccccc21
    7, -1.1
CCCCCC(=O)Nc1ccc(C(=O)COC(=O)c2cnc(C)cn2)cc1
    -6, ·
COc1cc(C(F)(F)F)cc(C(F)(F)F)c1C(=O)O
    ·, 1.2
CC1CCCC(NC(=O)Cn2cnc3onc(-c4ccc(Cl)cc4)c3c2=O)C1C (stereo not drawn)
    -38, ·
O=C(Nc1ccccc1Cl)c1cc2ccccc2cc1O
    7, 4.4
ON=C1/C(=N\O)CC2(C/C1=N/O)OCCO2
    12, 1.4
Cc1c(/C=N/N=C2/C(=O)N(Cc3ccccc3)c3ccccc32)cc(C#N)n1C
    15, ·
FC(F)(F)c1cc(-c2cccs2)nc2cc(C3CC3)nn12
    ·, 0.8
CCN(Cc1ccccc1)Cc1nnc(-c2ccccc2)o1
    25, ·
CC(C)NC(=S)Nc1ccc2cn[nH]c2c1
    -9, ·
CN(Cc1ccccc1)C1CCN(Cc2cccnc2)CC1
    2, ·
CC(C)N(C=O)C1(C(=O)NC2CCCCC2)CCCCC1
    16, -1.0
Cc1ccc(C(=O)NCCc2cc3cc(C)c(C)cc3[nH]c2=O)cc1
    5, 1.2
C=CCN1CC2(c3ccccc3)CN(CC=C)CC(c3ccccc3)(C1)C2=O
    -28, ·
Cc1ccc(-c2cc(C(=O)N3CCCCC3C)[nH]n2)cc1C (stereo not drawn)
    -28, ·

# Ordered by heavy-atom count (highest first): four of the compounds above.
# Fields: S aureus helic, MgrA DNA FP
CC1CCN(C(c2ccccc2)c2ccc3cccnc3c2O)CC1 (stereo not drawn)
    -14, ·
FC(F)(F)c1cc(-c2cccs2)nc2cc(C3CC3)nn12
    ·, 0.8
COc1cc(C(F)(F)F)cc(C(F)(F)F)c1C(=O)O
    ·, 1.2
CSc1ncnc2sc(C)cc12
    5, -1.7

# Complete entries, quoted from the list. Values in the order: S aureus helic | MgrA DNA FP
# CC(C)N(C=O)C1(C(=O)NC2CCCCC2)CCCCC1 is listed with 16 | -1.0
# CC1CCCC(NC(=O)Cn2cnc3onc(-c4ccc(Cl)cc4)c3c2=O)C1C (stereo not drawn) is listed with -38 | ·

# New compounds follow
# Fields: S aureus helic, MgrA DNA FP
C=CCn1c(C)cc(C(=O)CN2NS(=O)(=O)c3ccccc3C2=O)c1C
    9, ·
CC(C)c1ccc2[nH]c3c(c2c1)CCC/C3=N\O
    3, -0.1
CCN(CC)CC(O)COc1ccc(OC)cc1 (stereo not drawn)
    0, ·
O=C(O)c1cccc2c1C(=O)c1ccccc1-2
    ·, -1.4
Cc1cc(Nc2ccc(N(C)C)cc2)n2c(nc3ccccc32)c1C#N
    10, ·
Cc1nc(N)sc1N=Nc1ccccc1C(F)(F)F
    16, ·
Cc1c(Cc2ccccc2)c(=O)oc2cc(OCc3ccc(C(=O)O)cc3)ccc12
    3, -13
Cc1cc(N2CCN(c3ccccn3)CC2)nc2c(C)cccc12
    6, ·
CCOC(=O)c1c(C)oc2ncnc(Nc3ccccc3)c12
    -26, ·
COc1ccc(Br)cc1CNC(=O)CS(=O)(=O)Cc1nc(-c2ccc(C)cc2)oc1C
    -23, ·
COC(=O)C1CN(C(=O)Cc2coc3cc4c(cc23)CCC4)c2ccccc2O1 (stereo not drawn)
    4, ·
CCCc1cc(=O)oc2cc(OCC(=O)OCC)ccc12
    ·, -1.7
CC(C)C(=O)Nc1ccc(-c2cn3cccnc3n2)cc1
    -11, ·
O=C(N/C(=C/c1ccc2c(c1)OCO2)C(=O)N1CCOCC1)c1ccc(Br)cc1
    5, 0.5
COc1ccc(-c2noc(CC(=O)N3CCc4ccccc43)n2)cc1
    8, ·
Cn1c(NCc2c[nH]c3ccccc23)nc2ccccc21
    5, ·
CCOC(=O)C1CCCN(C(=O)COc2cccc(Br)c2)C1 (stereo not drawn)
    1, 1.9
CCOC(=O)c1ccccc1NC(=O)c1ccc(F)cc1
    22, ·
C1CCN(C2=NCCS2)CC1
    ·, -3.0
COC(=O)c1cc(OCC(F)(F)F)ccc1OCC(F)(F)F
    ·, -0.6

# Fields: S aureus helic, MgrA DNA FP
O=C(Nc1ccc2c(c1)OCCO2)C1(c2ccccc2)CCOCC1
    2, -2.2
Cc1ccnc(NC(=O)c2ccccc2NC(=O)c2ccccc2)c1
    4, ·
CCOC(=O)c1c(-c2ccc(OC)cc2)csc1NC(=O)CNCc1ccco1
    8, -0.7
CCN(C(=S)NCc1ccccc1)C1CCCCC1
    16, -0.7
O=C(OC1CCCC1=O)c1cc(-c2ccco2)nc2ccccc12 (stereo not drawn)
    -1, ·
CCn1c(CSc2nc3ccccc3n2CCOC)nc2cc(S(=O)(=O)N(C)C)ccc21
    12, ·
O=C(Nc1ccccc1C(=O)NCCN1CCOCC1)c1cccs1
    9, -1.9
Nc1ccc(OCc2ccc3ccccc3n2)cc1
    ·, 0.8
Cc1ccn2c(NC(=O)CN3CSCC3=O)c(-c3ccccc3)nc2c1
    -3, ·
COc1cc2c(cc1OC)C(c1ccccc1N)=NCC2
    ·, -0.5
Cc1cc(C)nc(NCCCO)n1
    -32, ·
NC(=O)C1CCN(C(=O)CCSc2ccc(Cl)cc2)CC1
    8, 3.6
O=C(Cc1ccccc1)NC1CCN(C(=O)C2CCC2)CC1
    ·, 4.6
CC1(C)Cc2cccc(Oc3nnnn3-c3ccccc3)c2O1
    2, ·
CN(Cc1ccccc1)C(=O)Cn1ncn2nc(-c3cccs3)cc2c1=O
    12, ·
CC1=NN(c2nnc(C)c(=O)[nH]2)C(=O)/C1=C\c1ccc(N(C)C)cc1
    3, 1.5
O=C1NC(=S)S/C1=C/c1ccccc1C(=O)O
    ·, 4.3
c1cc(-c2ccc3c(c2)OCO3)[nH]n1
    ·, -3.5
N#CCCn1cnc2ccccc21
    9, -1.1
CO/N=C(/C)c1ccc2c(c1)CCO2
    -8, ·

# Fields: S aureus helic, MgrA DNA FP
Cc1ccccc1C(=O)OCc1cnc(Cl)s1
    ·, -0.6
CC(C)NC(=O)/C=C/c1ccc2c(c1)OCO2
    12, -1.7
CCCc1c(C(=O)NCc2ccc3c(c2)OCO3)cnn1-c1ccccc1
    ·, 0.1
CCOC(=O)CNc1ccc(C(F)(F)F)cc1
    ·, 0.3
Cn1c(CC(=O)Nc2ccccc2F)nnc1SCC(=O)N1CCOCC1
    -21, 3.1
CC(Oc1ccc(Cl)cc1Cl)C(=O)N1CCN(C(=O)c2ccco2)CC1 (stereo not drawn)
    -8, 0.9
O=C(CCCN1C(=O)c2ccccc2C1=O)Oc1ccccc1
    -8, ·
CC(C)C(=O)Nc1ccc2nc(SCc3cc(=O)n4nc(C(C)C)sc4n3)sc2c1
    0, ·
COc1ccc2nc(-c3cccc(N)c3)[nH]c2c1
    7, ·
COc1ccc(C2C(C(=O)O)c3ccccc3C(=O)N2CC2CC2)cc1 (stereo not drawn)
    ·, -0.9
Cc1nn(-c2ccccc2)nc1C(=O)N1CCCc2ccccc21
    ·, -7.0
CN(C1CC2C=CC1C2)S(=O)(=O)c1cc(Cl)sc1Cl (stereo not drawn)
    ·, -0.1
Cc1ccc(Nc2nc(N)nc(COC(=O)c3ccccc3NS(C)(=O)=O)n2)cc1
    12, ·
C=CCn1c(=N)n(CC(=O)O)c2ccccc21
    4, ·
COC(=O)c1cccc(C(=O)OC)c1Cl
    26, ·
COc1ccc(-n2c(=S)[nH]c3cc(C(=O)NCc4ccco4)ccc3c2=O)cc1
    25, ·
Nc1nc2ccccc2n2nnnc12
    7, ·
Oc1ccccc1C=Nc1ccc(-c2nc3ccccc3s2)cc1
    12, 0.2
O=C(c1cccs1)C(O)c1c[nH]c2ccccc12 (stereo not drawn)
    3, ·
Cc1ccc(/C=C2\Sc3ccccc3C2=O)c(O)c1
    -22, -1.2

# Fields: S aureus helic, MgrA DNA FP
O=C(O)c1cccc(NCc2ccc3c(c2)OCO3)c1
    8, -3.5
Cc1cc(C)c2c(c1)c1nc3ccccc3nc1n2CC(=O)O
    22, 3.3
O=C(c1cc(C(F)(F)F)cc(C(F)(F)F)c1)N1CCc2cc([N+](=O)[O-])ccc21
    ·, 0.0
O=C(c1cccs1)N1CCN(c2cccc3[nH]ccc23)CC1
    ·, 0.3
CCOC(=O)c1oc2ccccc2c1COC(=O)CSc1nc(C)cc(C)n1
    -1, ·
Cc1ccc(C2CC(c3ccccc3)=Nc3ccccc3S2)cc1 (stereo not drawn)
    ·, 1.4
CC(=O)NC(=O)c1cc2cc(Br)ccc2oc1=Nc1cccc(C(F)(F)F)c1
    ·, -0.2
O=C(c1ccc2c(c1)C(=O)c1ccccc1-2)c1ccccc1Br
    ·, -2.2
COC(=O)c1c(-n2cccc2)sc2c1CCN(C(C)=O)C2
    11, ·
CCC(=O)Nc1ccc(C)cc1C
    -11, ·
CSc1nc2c(sc3ccccc32)c(=O)n1-c1ccc(C)cc1
    6, 0.8
Cc1ccccc1-n1nc2c(c1NC(=O)C(C)C)CSC2
    10, ·
O=C(NCN1CCN(c2ccccc2F)CC1)c1ccccc1
    16, ·
C=CCOC(=O)c1c(N)oc2c(-c3ccccc3)c3c(C(=O)OCC=C)c(N)oc3cc12
    3, -0.1
CCC(=O)Oc1ccc(C=C2C(=O)NC(=O)NC2=O)cc1OC
    26, ·
CC(=O)N1c2ccccc2C=Cc2ccccc21
    ·, 0.6
COc1ccc2c(CCNC(=O)Nc3ccccc3)c[nH]c2c1
    25, 5.8
CCOc1ccc(NC(=S)NC(C)(C)C)cc1
    -6, ·
CSc1ncccc1C(=O)Nc1ccnn1Cc1ccccn1
    -3, ·
Cc1ccc(/C=N\NC(=O)c2cc(C)oc2C)cc1
    -5, ·
